# NOMO-1 viab = NOMO-1 AML cell viability reduction, primary screen, STK33 inhibitor project, CellTiter-Glo luminescence; NOMO-1 AML viability, 72 h; inhibition, % (test concentration not listed); hit rate 7.5% among 37,000; AID 2330, 2010;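 active = most replicates above 80%; inconclusive = exactly half above 80%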;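 note: wells of about 30 µL received 25 nL stock; 0% = median of vehicle wells and 100% = reference inhibitor level; the first replicate is given; inactives centre near 10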
# * hit, by the source's call; ? = inconclusive. Only part of the results is shown; rates above refer to the full screens.
# A first look (3 entries):
O=C(CC1NC2CCCCC2NC1=O)Nc1ccccc1 (stereo unspecified)
  NOMO-1 viab = -5
COc1ccc(NC(=O)CSc2nc3c(c(C(F)(F)F)n2)CCCC3)c([N+](=O)[O-])c1
  NOMO-1 viab = 13
CNC[C@H]1Oc2ccc(NS(=O)(=O)c3cn(C)cn3)cc2CC(=O)N([C@H](C)CO)C[C@H]1C
  NOMO-1 viab = 32

# The whole of this part, previewed entries included:
O=C(CC1NC2CCCCC2NC1=O)Nc1ccccc1 (stereo unspecified)
  NOMO-1 viab = -5
COc1ccc(NC(=O)CSc2nc3c(c(C(F)(F)F)n2)CCCC3)c([N+](=O)[O-])c1
  NOMO-1 viab = 13
CNC[C@H]1Oc2ccc(NS(=O)(=O)c3cn(C)cn3)cc2CC(=O)N([C@H](C)CO)C[C@H]1C
  NOMO-1 viab = 32
COc1ccc(CN(C)C[C@H]2Oc3ccc(NC(=O)NC(C)C)cc3C(=O)N([C@H](C)CO)C[C@@H]2C)cc1
  NOMO-1 viab = 21
CNC(=O)CN(c1ccccc1C)S(=O)(=O)c1ccc(C)cc1
  NOMO-1 viab = -6
COc1ccc(NC(=O)CN(c2cccc(F)c2)S(C)(=O)=O)cc1OC
  NOMO-1 viab = -11
Cc1cc(C)nc(S/C=C/C(=O)c2ccc(Cl)cc2)n1
  NOMO-1 viab = 121*
C[C@@H]1CN([C@H](C)CO)C(=O)c2cc(NC(=O)Cc3ccccc3)ccc2O[C@H]1CN(C)CC1CC1
  NOMO-1 viab = 21
COc1ccc(CN(C)C[C@H]2Oc3c(NC(=O)Nc4ccccc4)cccc3C(=O)N([C@@H](C)CO)C[C@H]2C)cc1
  NOMO-1 viab = 2
O=[N+]([O-])c1cc(C(F)(F)F)ccc1NCCNS(=O)(=O)c1ccc(Br)cc1
  NOMO-1 viab = 75
Cc1ccc(S(=O)(=O)N(C)C[C@H]2Oc3c(NS(=O)(=O)c4ccc(F)cc4)cccc3C(=O)N([C@@H](C)CO)C[C@H]2C)cc1
  NOMO-1 viab = 58
C=CCNC(=O)CSc1ncc2c(n1)-c1c(csc1SC)CC2
  NOMO-1 viab = 21
CCOc1ccc(Br)cc1C(=O)NCCc1c[nH]c2ccccc12
  NOMO-1 viab = 35
Cc1c(C)c(C)c(S(=O)(=O)N2CC(C)CC(C)C2)c(C)c1C (stereo unspecified)
  NOMO-1 viab = 3
C[C@@H]1CN([C@@H](C)CO)C(=O)Cc2cc(NS(=O)(=O)c3ccccc3)ccc2O[C@@H]1CN(C)Cc1ccc(-c2ccccc2)cc1
  NOMO-1 viab = 34
C[C@@H]1CN([C@H](C)CO)C(=O)Cc2cc(NC(=O)C3CC3)ccc2O[C@H]1CN(C)S(=O)(=O)c1ccccc1
  NOMO-1 viab = 11
C[C@H]1CN([C@@H](C)CO)C(=O)c2cc(NS(=O)(=O)c3ccc(F)cc3)ccc2O[C@@H]1CN(C)C(=O)Nc1ccc2c(c1)OCO2
  NOMO-1 viab = 12
Cc1ccc(O)c(NC(=O)CCCC(=O)O)c1
  NOMO-1 viab = -1
C[C@H]1CN([C@@H](C)CO)C(=O)c2cc(NS(=O)(=O)c3cn(C)cn3)ccc2O[C@H]1CN(C)S(=O)(=O)c1cccs1
  NOMO-1 viab = 5
N#CC1=C(SCC(=O)c2ccc(F)cc2)NC2(CCCC2)C(C#N)C1=O (stereo unspecified)
  NOMO-1 viab = 41
C[C@H](CO)N1C[C@H](C)[C@@H](CN(C)C)Oc2c(NS(C)(=O)=O)cccc2C1=O
  NOMO-1 viab = -4
C[C@H]1CN([C@@H](C)CO)C(=O)Cc2cc(NC(=O)CCN3CCOCC3)ccc2O[C@@H]1CN(C)CC1CCCCC1
  NOMO-1 viab = -11
C[C@@H]1CN([C@@H](C)CO)C(=O)c2cc(NC(=O)Nc3cccc4ccccc34)ccc2O[C@H]1CN(C)Cc1ccc(Oc2ccccc2)cc1
  NOMO-1 viab = 115*
C[C@@H]1CN([C@H](C)CO)C(=O)c2cc(NS(=O)(=O)c3ccc(F)cc3)ccc2O[C@@H]1CN(C)Cc1ccc(-c2ccccc2)cc1
  NOMO-1 viab = 118*
COc1cc(S(=O)(=O)n2nc(C)cc2C)c(OC)cc1Cl
  NOMO-1 viab = 28

# Retrieved by compound from the list above (5):
O=C(CC1NC2CCCCC2NC1=O)Nc1ccccc1 (stereo unspecified)
  NOMO-1 viab = -5
C[C@H]1CN([C@@H](C)CO)C(=O)c2cc(NS(=O)(=O)c3cn(C)cn3)ccc2O[C@H]1CN(C)S(=O)(=O)c1cccs1
  NOMO-1 viab = 5
Cc1ccc(O)c(NC(=O)CCCC(=O)O)c1
  NOMO-1 viab = -1
C[C@@H]1CN([C@H](C)CO)C(=O)Cc2cc(NC(=O)C3CC3)ccc2O[C@H]1CN(C)S(=O)(=O)c1ccccc1
  NOMO-1 viab = 11
COc1cc(S(=O)(=O)n2nc(C)cc2C)c(OC)cc1Cl
  NOMO-1 viab = 28

# Back to the main list with the 3 entries that preceded the break.
C[C@@H]1CN([C@@H](C)CO)C(=O)c2cc(NC(=O)Nc3cccc4ccccc34)ccc2O[C@H]1CN(C)Cc1ccc(Oc2ccccc2)cc1
  NOMO-1 viab = 115*
C[C@@H]1CN([C@H](C)CO)C(=O)c2cc(NS(=O)(=O)c3ccc(F)cc3)ccc2O[C@@H]1CN(C)Cc1ccc(-c2ccccc2)cc1
  NOMO-1 viab = 118*
COc1cc(S(=O)(=O)n2nc(C)cc2C)c(OC)cc1Cl
  NOMO-1 viab = 28
CCOC(=O)CCSc1n[nH]c(=S)s1
  NOMO-1 viab = 67
CS(=O)(=O)Nc1ccc(C(=O)NCc2ccccn2)cc1
  NOMO-1 viab = -16
COC(=O)c1c(NC(=S)Nc2ccc(S(=O)(=O)NC34CC5CC(CC(C5)C3)C4)cc2)sc(C(=O)N(C)C)c1C
  NOMO-1 viab = 4
CCc1cccc(C)c1NC(=O)CSc1nnc(-c2ccc(OC)cc2)n1C
  NOMO-1 viab = 12
Cc1nc(-c2ccncc2)nc(NCCNc2ccc(C(F)(F)F)cn2)c1Cl
  NOMO-1 viab = 58
CCC1c2[nH]c3ccccc3c2CCN1C(=O)c1ccc(Cl)cc1 (stereo unspecified)
  NOMO-1 viab = 84*
C[C@H]1CN([C@@H](C)CO)C(=O)c2cccc(NC(=O)C3CCCCC3)c2O[C@@H]1CN(C)CC1CCCCC1
  NOMO-1 viab = ?
Cc1cc(C(=O)Nc2cccc3c2O[C@@H](CN(C)C(=O)Nc2c(C)noc2C)[C@H](C)CN([C@H](C)CO)C3=O)n(C)n1
  NOMO-1 viab = -7
Cc1noc(C)c1NC(=O)N(C)C[C@H]1OCCCC[C@@H](C)Oc2ccc(NC(=O)c3ccncc3)cc2C(=O)N([C@H](C)CO)C[C@@H]1C
  NOMO-1 viab = -5
C[C@H]1CN([C@@H](C)CO)C(=O)c2cccc(NS(C)(=O)=O)c2O[C@H]1CN(C)S(=O)(=O)c1cn(C)cn1
  NOMO-1 viab = -11
C[C@@H]1CN([C@@H](C)CO)C(=O)c2cc(NC(=O)CCN3CCOCC3)ccc2O[C@@H]1CN(C)Cc1ccc(C(=O)Nc2ccccc2N)cc1
  NOMO-1 viab = 31
Cc1noc(C)c1NC(=O)Nc1ccc2c(c1)C(=O)N([C@@H](C)CO)C[C@H](C)[C@@H](CN(C)C(=O)NC(C)C)O2
  NOMO-1 viab = 21
COc1ccc(CN(C)C[C@H]2Oc3ccc(NC(=O)CCN4CCOCC4)cc3C(=O)N([C@@H](C)CO)C[C@@H]2C)cc1
  NOMO-1 viab = -6
C[C@@H]1CN([C@@H](C)CO)C(=O)c2cccc(NC(=O)Nc3ccc4c(c3)OCO4)c2O[C@H]1CN(C)S(=O)(=O)c1ccccc1
  NOMO-1 viab = 5
C[C@@H]1CN([C@H](C)CO)C(=O)c2cccc(NC(=O)C3CCCCC3)c2O[C@@H]1CN(C)S(=O)(=O)c1ccc(F)cc1
  NOMO-1 viab = 5
CN(C)CCCc1cc(C(=O)Nc2ccc(-c3ccncc3)cc2)ccc1O
  NOMO-1 viab = 10
C[C@@H]1CN([C@H](C)CO)C(=O)c2cccc(NC(=O)Nc3ccc(F)cc3)c2O[C@H]1CN(C)C
  NOMO-1 viab = 21
C[C@@H]1CN([C@H](C)CO)C(=O)c2cc(NS(=O)(=O)c3cn(C)cn3)ccc2O[C@H]1CN(C)C(=O)Nc1ccccc1
  NOMO-1 viab = -17
O=C(COc1ccc2ccccc2c1)Nc1cccc(NC(=O)c2ccc(Cl)cc2Cl)c1
  NOMO-1 viab = 15
C[C@H]1CN([C@@H](C)CO)C(=O)c2cc(NC(=O)Cc3cn(C)c4ccccc34)ccc2O[C@H]1CN(C)Cc1ccc(C(=O)O)cc1
  NOMO-1 viab = -17
N#Cc1cc(Cc2ccc(N)c(C#N)c2)ccc1N
  NOMO-1 viab = 66
CCOC(=O)C(C)Sc1nc(-c2cccs2)ccc1C#N (stereo unspecified)
  NOMO-1 viab = 68
C[C@H](CO)N1C[C@H](C)[C@H](CN(C)Cc2ccc3c(c2)OCO3)Oc2ccc(NC(=O)CCN3CCOCC3)cc2C1=O
  NOMO-1 viab = 12
CS(=O)(=O)N(CC(=O)Nc1ccccc1-c1ccccc1)c1ccccc1Cl
  NOMO-1 viab = -1
COC(=O)c1cc(NC(=O)C(C)N(c2ccc(C)cc2)S(C)(=O)=O)ccc1Cl (stereo unspecified)
  NOMO-1 viab = 38

COC(=O)c1ccc(CSc2nnc(-c3ccncc3)o2)o1
  NOMO-1 viab = 74
O=C(NCCCN1CCN(c2ccccc2[N+](=O)[O-])CC1)Nc1ccccc1F
  NOMO-1 viab = -3
Cc1ccc(S(=O)(=O)Nc2ccc3c(c2)C(=O)N([C@H](C)CO)C[C@H](C)[C@H](CN(C)Cc2ccc(Cl)c(Cl)c2)OCCCC[C@@H](C)O3)cc1
  NOMO-1 viab = 111*
COc1cc(C[C@@]2(O)C(=O)OC[C@@H]2Cc2ccc(OC)c(OC)c2)ccc1O
  NOMO-1 viab = 78
C[C@@H]1CN([C@@H](C)CO)C(=O)c2cc(NC(=O)Nc3ccc(F)cc3)ccc2O[C@@H]1CN(C)Cc1ccc(C(F)(F)F)cc1
  NOMO-1 viab = 105*
COc1ccc(C(=O)CSc2n[nH]c(C)n2)cc1[N+](=O)[O-]
  NOMO-1 viab = -7
C[C@H](CO)N1C[C@H](C)[C@H](CN(C)C(=O)Nc2cccc3ccccc23)Oc2ccc(N(C)C)cc2CC1=O
  NOMO-1 viab = 22
c1ccc(N=C(Nc2ccccc2)Nc2ccccc2)cc1
  NOMO-1 viab = 89*
C[C@H](CO)N1C[C@H](C)[C@H](CN(C)C(=O)Nc2ccccc2)Oc2ccc(NS(=O)(=O)c3ccc(Cl)cc3)cc2C1=O
  NOMO-1 viab = 13
CCCCCc1cc(OC)c2c(c1C(=O)O)OC(C)(C)C(O)C2 (stereo unspecified)
  NOMO-1 viab = 19
C[C@H]1CN([C@@H](C)CO)C(=O)c2cc(NC(=O)CCCN(C)C)ccc2O[C@H]1CN(C)Cc1ccncc1
  NOMO-1 viab = 10
C[C@H]1CN([C@@H](C)CO)C(=O)Cc2cc(NC(=O)Nc3ccccc3)ccc2O[C@@H]1CN(C)S(=O)(=O)c1cn(C)cn1
  NOMO-1 viab = -16
C[C@@H]1CN([C@H](C)CO)C(=O)c2cc(NC(=O)C3CCCCC3)ccc2O[C@H]1CN(C)C(=O)NC1CCCCC1
  NOMO-1 viab = 6
Cc1[nH]c2ccccc2c1C(=O)CSc1nc2scc(-c3ccco3)c2c(=O)n1-c1ccccc1
  NOMO-1 viab = 22
C[C@H](CO)N1C[C@H](C)[C@H](CN(C)C(=O)NC2CCCCC2)Oc2c(NS(=O)(=O)c3ccc(Cl)cc3)cccc2C1=O
  NOMO-1 viab = 88*
Cc1ccc(S(=O)(=O)N(C)C[C@H]2Oc3ccc(NC(=O)NC(C)C)cc3C(=O)N([C@H](C)CO)C[C@@H]2C)cc1
  NOMO-1 viab = -7
COc1ccc(S(=O)(=O)Nc2ccc3c(c2)C(=O)N([C@H](C)CO)C[C@H](C)[C@@H](CN(C)CC2CC2)OCCCC[C@@H](C)O3)cc1
  NOMO-1 viab = 17
Cc1ccc(N/C(=N/C(N)=S)c2ccccc2)cc1
  NOMO-1 viab = -11
CC(C)=CCc1c(O[C@@H]2O[C@H](CO)[C@@H](O)[C@H](O)[C@H]2O)cc(O)c2c1O[C@H](c1ccc(O)cc1)[C@@H](O)C2=O
  NOMO-1 viab = 5
O=C(NCc1ccco1)c1cccc(S(=O)(=O)N2CCCCCC2)c1
  NOMO-1 viab = -3
C[C@H](CO)N1C[C@H](C)[C@H](CN(C)C(=O)Nc2ccc(C(F)(F)F)cc2)Oc2c(NS(=O)(=O)c3cn(C)cn3)cccc2C1=O
  NOMO-1 viab = 13
COc1ccc(NC(=O)Nc2ccc3c(c2)C(=O)N([C@@H](C)CO)C[C@H](C)[C@@H](CN(C)C(=O)Nc2ccc(C(F)(F)F)cc2)O3)cc1
  NOMO-1 viab = 12
C[C@@H]1CN([C@H](C)CO)C(=O)Cc2cc(NS(=O)(=O)c3ccccc3)ccc2O[C@@H]1CN(C)S(=O)(=O)c1cn(C)cn1
  NOMO-1 viab = 2
CC(C)Oc1ccc(NC(=O)CCN2C(=O)c3ccccc3C2=O)cc1
  NOMO-1 viab = 31
Nc1cc(=O)[nH]c(SCC(=O)N2CCN(c3ccccc3)CC2)n1
  NOMO-1 viab = 37
O=C(CSc1n[nH]c(-c2ccc(Cl)cc2Cl)n1)Nc1ccc(F)cc1
  NOMO-1 viab = 9

# Source: PubChem (Broad Institute)
